# Rango dissoc inh = inhibition of RanGTP-driven Rango-importin beta dissociation. Potency, µM (doses to about 46.1 µM), without a hit: at the highest dose activity change, negative = inhibition. Biochemical FRET Rango-importin beta, RanGTP-induced dissociation. O95149+P62826. 340,000 tested, 0.071% active; active means falling FRET ratio curve, often poorly fitted, with flat reads before Ran was added; inconclusive means other falling curves, or compound fluorescence or quenching; inactive means flat or rising ratio curve;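 also: potency is read from the fitted curve at half-maximal effect; % of control where 0% means no effect; nearly all actives have a fitted effect of over 45% in size; -100% = wells without RanGTP and RCC1; the record marks most hits as doubtful in a second field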
#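 Compounds sat 5 min at room temperature with 0.1 uM Rango biosensor plus 0.25 uM importin beta, then FRET pre-read. RanGTP-RCC1 (0.6 uM Ran, 2mM GTP, 0.2 uM RCC1) added for 45 min, and the CFP/YFP post-read measured blocked complex dissociation.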
# miR-21 reporter = miR-21 reporter, rising signal; HeLa miR-21 FLuc reporter, luciferase, 48 h; Potency, µM (titrated, usually from 38.3 µM), for the others: top-dose reporter change, positive = more light; 340,000 tested, under 10 active; AID 2288; active = well fitted rising curve with a large enough effect; inconclusive = small, poorly fitted or top-dose-only effect; inactive = no such curve, though single readings can be large or run the other way;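 also: % of control where 0% means no effect; miR-21 action dims this reporter so a rising signal means less miR-21 action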
#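 Compounds were titrated across several concentrations (up to approximately 40 uM) and incubated 48 hours with HeLa miR-21-FLuc reporter cells (miR-21 target sequence downstream of FLuc, endogenous miR-21). Readout was firefly luciferase luminescence after lytic detection reagent.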
# Rango-impB inh = inhibitors of Rango-importin beta complex formation; Q14974; Rango CFP/YFP FRET sensor + importin beta, 45 min; Potency, µM (titrated, usually from 92.2 µM), for the others: at the top dose inhibition of complex formation; 340,000 tested, 0.031% active; AID 540263; active = rising FRET ratio curve, often small or poorly fitted; inconclusive = mostly compound fluorescence or quenching in the first reads; inactive = flat curves in all reads;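 also: potency is read from the fitted curve at half-maximal effect; 0% = DMSO wells and 100% = buffer wells lacking importin beta; nearly all actives have a fitted effect of over 15% in size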
# Target sequence (Q14974 whole entry, looked up): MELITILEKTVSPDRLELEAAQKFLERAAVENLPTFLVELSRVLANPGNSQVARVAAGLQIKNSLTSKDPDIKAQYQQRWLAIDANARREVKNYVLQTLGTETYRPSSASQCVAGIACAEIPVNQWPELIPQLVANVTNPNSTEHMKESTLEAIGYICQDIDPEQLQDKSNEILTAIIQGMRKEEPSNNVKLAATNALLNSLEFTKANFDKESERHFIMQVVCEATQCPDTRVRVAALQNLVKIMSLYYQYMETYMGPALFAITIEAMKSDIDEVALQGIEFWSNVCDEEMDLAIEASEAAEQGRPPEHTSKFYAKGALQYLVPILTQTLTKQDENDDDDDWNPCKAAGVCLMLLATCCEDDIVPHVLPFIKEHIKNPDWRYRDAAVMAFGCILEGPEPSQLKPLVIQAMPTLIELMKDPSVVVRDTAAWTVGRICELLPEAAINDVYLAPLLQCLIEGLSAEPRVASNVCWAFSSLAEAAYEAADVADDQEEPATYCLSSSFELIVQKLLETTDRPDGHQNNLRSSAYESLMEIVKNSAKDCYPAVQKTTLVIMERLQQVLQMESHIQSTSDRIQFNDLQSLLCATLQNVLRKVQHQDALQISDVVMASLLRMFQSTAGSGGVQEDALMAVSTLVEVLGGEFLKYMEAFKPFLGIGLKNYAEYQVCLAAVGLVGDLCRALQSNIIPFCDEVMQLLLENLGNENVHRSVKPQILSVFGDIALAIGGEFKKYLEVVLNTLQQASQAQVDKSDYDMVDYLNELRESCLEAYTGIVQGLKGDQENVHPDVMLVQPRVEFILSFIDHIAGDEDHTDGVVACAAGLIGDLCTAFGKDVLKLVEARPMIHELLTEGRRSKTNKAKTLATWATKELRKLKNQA
#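 Inhibition scored from the CFP 486 nm/YFP 530 nm FRET ratio 45 min after adding 0.125 microM importin beta to 50 nM Rango biosensor preincubated 5 min with compound (room temperature, PBS with DTT, Tween-20, BSA). No-importin wells as positive control.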
# GLA inh pH 4.5 = alpha-galactosidase A (human) inhibition, pH 4.5. purified enzyme, 4-MU-alpha-Gal fluorescence, pH 4.5. activity change, negative = inhibition, % at 105 µM. 230,000 tested, under 10 active. AID 1467; inconclusive = small, poorly fitted or top-dose-only inhibition, or a rising curve; inactive = flat fitted curve, though single readings scatter; no compound was filed as active;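 also: 0% = full activity with enzyme and -100% = basal without enzyme; dose as in the result columns while the protocol names 77 µM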
# Active calls of the source: *; ? = inconclusive; · = no result given; & = joins results of further samples. An excerpt (hit frequency here may not be typical).
SMILES,Rango dissoc inh,miR-21 reporter,Rango-impB inh,GLA inh pH 4.5
COc1ccc(Nc2ncnc3sccc23)c(OC)c1,-13.7%,-9.2%,-4.7%,·
O=C(NCc1ccccn1)c1cn(-c2ccccc2)nc1-c1ccc(Cl)cc1,-6.9%,-5.3%,0.2%,4.8
COc1ccc(N(CC(=O)NCCc2cccc(C)c2)S(=O)(=O)c2c(C)noc2C)cc1,-21.2%,5.4%&7.1%,5.1%,·
CC(=O)c1ccc(NC(=S)N(Cc2ccccc2)C(C)C2CC2)cc1 (centres undefined),-11.6%,-1.9%,3.7%,8.1
CCC(CC)C(=O)c1c[nH]c(C(=O)NCc2ccccn2)c1,17.1%,-7.8%,-0.1%,5.9
COc1ccc(NC(=O)COc2ccccc2)cc1NC(=O)c1ccco1,?,-7.1%,-0.7%,·
CCOC(=O)C(C)(C)N(Cc1ccc(C)cc1)S(=O)(=O)c1ccc(Cl)c([N+](=O)[O-])c1,3.9%,?,?,-11.1
Cc1nn(C)c(C)c1/C=C/C(=O)c1ccccc1,-19.3%,-47.9%,-2.7%,-11.9
O=C(CNC(=O)c1cccc(F)c1)N/N=C/c1cc(Br)ccc1OC(=O)/C=C/c1ccco1,-14.9%,22.1%,?,-6.5
CN1CCN(c2ccc(NC(=O)COc3ccc(Cl)cc3Cl)cc2)CC1,11.1%,-3.5%,-4.0%,-1.9
CCN(CC(=O)Nc1cccc(OC)c1)C(=O)c1ccc(C)s1,-6.1%,-2.1%,0.8%,-0.4
O=C(CSc1nc2ccc(Nc3nc(N4CCOCC4)nc(N4CCOCC4)n3)cc2s1)Nc1ccccc1Cl,0.6%,-6.0%,-1.8%,·
CCOC(=O)N1CCN(C(=O)c2ccc(Cl)c(S(=O)(=O)N3CCOCC3)c2)CC1,4.2%,-2.9%,2.5%,0.7
COc1ccc(S(=O)(=O)NCc2csc(-c3cccnc3)n2)cc1,1.3%,-7.0%,-1.6%,0.6
N#CCCn1cc(/C=N/O)c(-c2ccc(F)cc2)n1,2.0%,-4.3%,3.4%,-1.0
O=C(Nc1ccccc1NC(=O)c1ccccc1F)c1ccccc1F,-13.0%,-4.7%,-2.5%,·
CC(C)N(C(=O)COC(=O)c1cccc(S(=O)(=O)N2CC3(C)CC2CC(C)(C)C3)c1)C(C)C (centres undefined),13.7%,·,-3.8%,·
Cc1ccc(N2CCN(C(=S)c3ccc(-c4cccc([N+](=O)[O-])c4)o3)CC2)cc1,6.0%,-6.6%,1.8%,-4.6
CCC1(c2ccccc2)NC(=O)N(CC(=O)NC2CCCC2)C1=O (centres undefined),8.5%,·,1.0%,·
COc1ccccc1CC(=O)N(Cc1ccccc1)c1cccc(C)c1,3.2%,5.2%,2.8%,·
Cc1cccc2cc3c(N)c(C(=O)N4CCc5ccccc54)sc3nc12,?,-10.3%,?,1.2
O=C(Nc1ccccc1F)C1CCN(C(=O)Cc2ccccc2)CC1,14.2%,0.6%,-0.7%,9.0
N#Cc1ccc(C23CC4(C2)[C@H](CN(CC2CCCCC2)[C@@H]4c2ccccc2)C3c2ccccc2)cc1 (some centres undefined),9.4%,-12.3%,-0.5%,-4.0&6.1
CCOCCCN(C(=O)c1snc(C(N)=O)c1N)C(C(=O)NC1CCCC1)c1ccc(OC)cc1 (centres undefined),-10.6%,2.6%,-1.5%,·
CCc1ccccc1NC(=O)N1CCc2ccccc2C1,0.9%,-24.0%,6.2%,·
Nc1nnc(SCC(=O)N2CCN(c3ccccc3)CC2)n1-c1ccccc1,6.3%,-7.5%,3.7%,7.6
CCCC(=O)Nc1nnc(SCC(=O)N2CCN(c3ccccc3)CC2)s1,-0.3%,-1.3%,-2.8%,7.2
O=C(NCc1cccnc1)C(=O)NCC(c1ccco1)N1CCN(c2ccc(F)cc2)CC1 (centres undefined),3.9%,0.7%,2.4%,5.9
CC(=O)Nc1c(I)c(C(=O)N[C@H]2C(O)O[C@H](CO)[C@@H](O)[C@@H]2O)c(I)c(N(C)C(C)=O)c1I (some centres undefined),27.4%,·,0.7%,·
Cc1nn2c(c1-c1ccc(Cl)cc1)N=C(c1ccco1)CC2c1ccccc1 (centres undefined),-21.5%,3.9%,58µM*,?

# Reprinted at random: 2 entries already listed
SMILES,Rango dissoc inh,miR-21 reporter,Rango-impB inh,GLA inh pH 4.5
CC(=O)c1ccc(NC(=S)N(Cc2ccccc2)C(C)C2CC2)cc1 (centres undefined),-11.6%,-1.9%,3.7%,8.1
COc1ccccc1CC(=O)N(Cc1ccccc1)c1cccc(C)c1,3.2%,5.2%,2.8%,·

# Next part.
SMILES,Rango dissoc inh,miR-21 reporter,Rango-impB inh,GLA inh pH 4.5
COc1cc(OC)cc(C(=O)N[C@H](C(=O)Nc2nc3ccccc3[nH]2)C(C)C)c1,8.0%,23.9%,3.3%,-10.5
COc1ccc(-n2nc(C(=O)NCc3cc(OC)ccc3OC)c3c4ccccc4n(C)c3c2=O)cc1,0.8%,0.0%,3.0%,1.1
O=C(CN(C(=O)c1csnn1)c1cccc(C(F)(F)F)c1)NCc1ccc(F)cc1,-2.9%,6.2%,-0.2%,·
CC(C)(C)c1ccc(Oc2ncccc2NC(=O)c2cccs2)cc1,13.5%,-11.3%,-3.1%,-10.0
COc1cc(C2NC(=O)N(C)C3=C2C(=O)CCC3)cc(OC)c1OC (centres undefined),0.6%,0.3%,-3.5%,5.2
COc1ccccc1NC(=O)c1cc[n+](C)cc1,1.4%,0.1%,0.1%,·
CCc1nn(CCCC(=O)N2CCN(c3ccc(OC)cc3)CC2)c(=O)c2cc3occc3n12,-2.4%,-6.3%&-4.5%,3.9%,·
COc1cnn(-c2ccc([N+](=O)[O-])cc2)c(=O)c1Cl,?,·,2.1%,·
COc1ccc(-c2nsc3c(N4CCN(C(=O)c5ccco5)CC4)ncnc23)cc1,5.6%,-29.0%,2.3%,5.8
O=C(Cn1nnc2ccccc21)N/N=C/c1ccco1,0.6%,-6.8%,-3.2%,-6.6
CN(C)c1ccc(/C=C/c2nc3ccccc3c(=O)[nH]2)cc1,?,-10.0%,?,·
CCOC(=O)N1CCN(C(=O)c2cccc(N3C(=O)NC4CC3(C)Oc3ccc(Cl)cc34)c2)CC1 (centres undefined),17.8%,11.7%,1.6%,·
COc1ccc(S(=O)(=O)Cc2ccc(C(=O)N3CCN(c4ccccc4F)CC3)o2)cc1,-5.8%,-4.3%,0.0%,-4.1
O=C(Nc1ccc(-c2nc3ccccc3c(=O)o2)cc1)c1ccco1,-0.4%,-4.4%,8.1%,-1.0
CCN(CC)C(=O)CSc1nnc(CNc2ccc(F)cc2)o1,-11.8%,1.5%,-1.7%,3.8
COc1cc(/C=C(/C#N)c2ccc(C)cc2)ccc1Oc1ccc([N+](=O)[O-])cn1,-6.0%,-0.1%,-1.5%,-6.1
C/C(=N\O)C(C)(C)Nc1cccc(Br)c1,0.8%,3.4%,-3.6%,-8.2
O=S1(=O)NC(=NCc2ccco2)c2ccccc21,-1.5%,-4.2%,-0.7%,2.6
Cc1ccc(OC(C)C(=O)N2CC(=O)Nc3ccccc32)cc1 (centres undefined),-5.1%,1.6%,0.5%,·
COc1ccc(NC(=O)CCC(=O)N/N=C/c2cn(C)nc2C)cc1,18.5%,-1.8%,2.1%,-15.8
CC(C)(C)NC(=O)NCc1cccnc1,12.5%,0.8%,4.1%,-4.8
Cn1cnc([N+](=O)[O-])c1Sc1nc(N)nc2c1ncn2Cc1ccccc1,1.6%,·,0.3%,·
Cc1ccc(-c2nc3n(n2)Cc2ccccc2-3)cc1,0.5%,11.6%,-0.4%,-1.8
CC(C)(C)NC(=O)CSc1nnc(-c2ccco2)n1Cc1ccco1,-1.8%,-6.3%,5.6%,-0.1
O=C(c1cc2ccccc2oc1=O)N1CCN(CCc2ccccc2)CC1,?,-4.8%,?,-2.0
Cc1ccc(C)c(N2CCN(C(=O)C3CCCN(S(=O)(=O)c4cnc[nH]4)C3)CC2)c1 (centres undefined),-8.2%,2.8%,1.5%,-8.3
CCOC(=O)N1CCC(NC(=O)CCC(=O)N2CCOc3ccccc32)CC1,18.1%,-6.1%,-2.0%,-15.2
Cc1ccccc1C(=O)NNC(=O)C1CC(=O)N(c2ccc3c(c2)OCCO3)C1 (centres undefined),?,·,0.2%,·
CN1C(=O)C(C)(C)c2cc(S(=O)(=O)N3CCN(c4ccc(F)cc4)CC3)ccc21,?,0.0%,0.2%,·
CCOC(=O)C1CCN(S(=O)(=O)c2cc(C(=O)N3CCCCC3)ccc2OC)CC1,15.9%,-0.4%,-0.6%,·
CC1(C)CC(NC(=O)c2coc(=O)c(Br)c2)CC(C)(C)N1,-11.4%,-4.1%,-5.0%,9.1
O=C(O)c1cccc(S(=O)(=O)N2CCN(Cc3ccc4c(c3)OCO4)CC2)c1,-8.3%,-2.6%,-1.4%,·
O=C(NCC(c1ccco1)N1CCOCC1)c1ccc(F)cc1 (centres undefined),-5.5%,·,-1.0%,·
O=C(NCc1ccc(F)cc1)C(=O)c1cn(CC(=O)N2CCCC2)c2ccccc12,0.3%,-4.5%,-2.1%,·
CC(CNC(=O)c1cc(COc2ccc3ncccc3c2)on1)c1ccccc1 (centres undefined),-7.3%,14.4%,-0.2%,·
Cc1cccc(OCCCN2C(=O)C(=O)c3cc(C)ccc32)c1,1.9%,8.0%,0.0%,8.2
Cc1ccccc1N/C=C/C(=C(C#N)C#N)N(C)C,-13.3%,-4.4%,-6.1%,12.4
CCCCn1cnc2c1c(=O)[nH]c(=O)n2CCCC,0.0%,4.7%,2.1%,6.2
CC(C)Cn1c(N)c(C(=O)COC(=O)/C=C/c2cccs2)c(=O)n(C)c1=O,-16.6%,17.2%,3.3%,3.1
COc1ccc(C(=O)NCC(=O)N2CCCC(C(F)(F)F)C2)cc1OC (centres undefined),-14.4%,·,-2.4%,·
COc1cc(C=O)ccc1OCC(=O)Nc1cccc(S(=O)(=O)N(C)c2ccccc2)c1,1.6%,·,0.5%,·
CC(C)N1CCC(=NNC(=O)c2cccs2)CC1,-3.4%,-64.9%,-0.9%,·
O=C(Oc1cc(=O)oc2ccccc12)c1ccccc1,0.7%,-11.9%,-1.2%,-5.2
CC(=O)/C(C(=N)N1CCN(c2cccc(Cl)c2)CC1)=C(\C)O,27.1%,-3.8%,-4.6%,0.8
CCCCCCN1CC(=O)N2[C@@H](Cc3c([nH]c4ccccc34)C2(C)C)C1=O,-6.2%,-0.6%,0.9%,·
CCCCN(CC)CCNC(=O)Cn1cc2c(n1)-c1c(oc(C(=O)N3CCCC3)c1C)CC2,21.2%,1.9%&-0.8%,-4.2%,·
C/C(=N/NC(=O)c1cc(Cl)ccc1O)C12CC3CC(CC(C3)C1)C2,-16.9%,-33.5%,-0.4%,-7.7
Clc1ccc(CSc2nnc(-c3cccnc3)o2)cc1,13.1%,-16.2%,0.8%,13.3
COc1ccc(OC2CCN(C(=O)Nc3ccc(C)cc3)CC2)cc1,40.9%,-11.8%,-2.1%,·
CCn1cc(C(=O)N(C)c2ccccc2F)c2cc(OC)c(OC)cc2c1=O,0.2%,-6.9%,0.7%,·
# Next part:
SMILES,Rango dissoc inh,miR-21 reporter,Rango-impB inh,GLA inh pH 4.5
CCc1nnc(NC=C2C(=O)OC(C)(C)OC2=O)s1,-20.3%,1.3%,?,-2.6
O=C(COc1ccccc1)NCCSCc1ccccc1Cl,7.7%,-50.5%,-3.3%,-3.6
COc1cccc(CNC(=O)C2CCCN(S(=O)(=O)c3c(C)n[nH]c3C)C2)c1 (centres undefined),1.6%,-1.1%,0.7%,-8.0
COc1ccccc1NS(=O)(=O)c1cc(NC(=O)c2ccccc2F)ccc1N1CCOCC1,-0.4%,4.7%,0.0%,-0.4
O=C(CSc1ccccc1)NCc1ccc(F)cc1,0.7%,-53.9%,-2.4%,4.7
CCOc1ccc(S(=O)(=O)NC2CCCCCC2)cc1,5.7%,-0.6%,-3.3%,0.8

# Only Rango dissoc inh, for some of the entries so far:
SMILES,Rango dissoc inh
COc1ccccc1NS(=O)(=O)c1cc(NC(=O)c2ccccc2F)ccc1N1CCOCC1,-0.4%
O=C(CSc1ccccc1)NCc1ccc(F)cc1,0.7%

# Screening data deposited in PubChem BioAssay by National Center for Advancing Translational Sciences (NCATS).
